Screening results as filed in PubChem.
Menin MLL FP FL = qHTS Assay for Inhibitors Targeting the Menin-MLL Interaction in MLL Related Leukemias: Competition With Fluorescein Labeled MLL-derived Peptide. 290,000 tested, under 10 active. Fluorescence polarization, fluorescein-MLL peptide displacement from menin. AID 1766, 2009. FP activity change, % at 61.4 µM; inconclusive = falling polarisation curve, or a change in total fluorescence; inactive = total fluorescence flat and polarisation flat or rising; no compound was filed as active; the % refers to the polarisation; negative = inhibition;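 note: % of control where 0% means no effect; inhibitors lower the polarisation; unlabelled MLL peptide was the positive control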
Sfp PPTase inh = qHTS Assay for Inhibitors of Bacillus subtilis Sfp phosphopantetheinyl transferase (PPTase); 310,000 tested, 3.5% active; AID 1490, 2009; Potency, µM, for inactives: max response, negative = inhibition, actives largely listed as inhibitors; 4'-phosphopantetheinyl transferase ffp (Bacillus subtilis), Q9F4F7; Biochemical Sfp PPTase activity, qHTS; active = well fitted inhibition curve with a large enough effect; inconclusive = small, poorly fitted or top-dose-only effect, or another doubt; inactive = no such curve, though single readings can be large or run the other way;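 note: the enzyme is Sfp with the accession as filed and its product quenches rhodamine fluorescence; potency is the fitted concentration of half-maximal effect; 0% = enzyme reaction without inhibitor and -100% = no enzyme wells; top concentration of the series not given in the record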
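Compounds were incubated with enzyme (final 15 nM) for 15 min at room temperature before substrate addition started the reaction. Fluorescence at 525 nm excitation, 598 nm emission was recorded immediately and after 30 minutes.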
Starred values were filed as active, the others as inactive; ? = inconclusive; & = joins results of further samples; [ ] = remark or other dose.

SMILES	Menin MLL FP FL	Sfp PPTase inh
COc1ccc(-c2nnc3n2N=C(c2ccccc2)CS3)cc1OC	6.2	11.0%
CC(=O)c1ccc(NC(=O)C(C)Sc2nnc(C3CCCCC3)o2)cc1 (stereo not given)	2.4	14.1%
CNc1cc(OC)c(C(=O)N[C@@H]2CCN(Cc3ccccc3)[C@H]2C)cc1Cl	26.3	-15.0%
Cc1ccc(S(=O)(=O)CC#CCOC(=O)c2ccc([N+](=O)[O-])cc2)cc1	1.0	50.1µM*
NC1CCN(c2cccc(Cl)n2)CC1	?	8.9%&8.3%
C#CCOCCOCCOCCNc1nc(N2CCN(C(=O)[C@H]([C@@H](C)CC)n3cc([C@@H](N)CO)nn3)CC2)nc(N2CCN(C(=O)[C@H](Cc3cc4ccccc4[nH]3)n3cc([C@@H](N)C(C)CC)nn3)CC2)n1 (stereo not given in full)	-0.4	50.1µM*
CCOC(=O)c1sc(NC(=O)/C=C/c2cnn(C)c2C)c(C(=O)OCC)c1C	2.9	13.8%
CC1=C(C(=O)OC(C)C)C(c2cccc([N+](=O)[O-])c2)C(C(=O)OC2CN(C(c3ccccc3)c3ccccc3)C2)=C(N)N1 (stereo not given)	2.0	35.2%[activator]
COC(=O)c1c(OC)cc2c(c1C)Oc1c(Cl)c(O)c(Cl)c(C)c1C(=O)O2	6.3	-27.5%
CC[C@@]1(O)C[C@H](O[C@H]2C[C@@H](N(C)C)[C@@H](O[C@H]3C[C@@H](O)[C@@H](O[C@H]4CCC(=O)[C@@H](C)O4)[C@@H](C)O3)[C@@H](C)O2)c2c(cc3c(c2O)C(=O)c2c(O)cccc2C3=O)[C@H]1C(=O)OC	?	-22.8%
COc1ccc2c(c1)O[C@H](c1ccc3c(c1)OCO3)[C@@H](OC(=O)NCCc1ccc(OC)c(OC)c1)C2=O	-5.1	-7.3%
Cc1ccc(C)c(OCCCC(=O)Nc2ccc(N3CCOCC3)cc2)c1	-0.2	-3.4%
C=C(N(C)C)[C@]1(C)C[C@H]1[C@H](NC(=O)CNC(=O)OCc1ccccc1)c1ccccc1	-4.1	41.9%[activator]
CCc1nc(N2CCN(c3nc(C)cc(C)n3)CC2)c2oc3ccccc3c2n1	-2.2	11.9%
O=c1cc(-c2cccc(F)c2)[nH]c2cc(F)ccc12	0.4[94.6 µM]	13.1%
Cc1c(-c2ccc(Cl)cc2)noc1C1CCN(CCc2ccccc2)CC1	?	1.0%&2.7%
CSCCC(N=Cc1c(O)n(-c2ccc(F)cc2)c(=O)[nH]c1=O)C(=O)O (stereo not given)	11.1	-7.9%
Cc1noc2nc(-c3cccs3)cc(-c3nnc4n3CCCCC4)c12	0.6	1.6%
COc1ccc(C2=Nn3c(nnc3-c3cc(OC)ccc3OC)SC2)cc1	-0.9	-0.4%
O=S1(=O)c2cccc3cccc(c23)N1CCCN1CCN(c2ccc(F)cc2)CC1	0.4	15.6%
Cc1[nH]c(=O)[nH]c1CN1CCCCC1	4.0	8.4%
C=CC(C1=CC(=O)C(OC)=CC1=O)c1ccc(O)cc1 (stereo not given)	-1.5	-75.3%
C/C(=N\Nc1ccc([N+](=O)[O-])cc1[N+](=O)[O-])c1cc2c(ccc3ccccc32)oc1=O	-0.4	-13.2%
CC(O)CCCCCCC/C=C/C=C/C(N)=O (stereo not given)	0.6[11.7 µM]	1.6%
O=C(O)Cc1cc2ccccc2nc1C(=O)O	?	79.4µM*

As a short view, some entries already given.
SMILES	Menin MLL FP FL	Sfp PPTase inh
CC(O)CCCCCCC/C=C/C=C/C(N)=O (stereo not given)	0.6[11.7 µM]	1.6%
O=C(O)Cc1cc2ccccc2nc1C(=O)O	?	79.4µM*

Following part
SMILES	Menin MLL FP FL	Sfp PPTase inh
CC1(CN2CCC(n3c(=O)[nH]c4ccccc43)CC2)OCc2ccccc2-n2cccc21 (stereo not given)	2.0	-7.6%
CCCOc1ccc(C2C(C(=O)c3ccco3)=C(O)C(=O)N2CCN2CCOCC2)cc1OC (stereo not given)	4.0	-5.0%
N[C@@H](CCCP(=O)(O)O)C(=O)O	18.2	8.3%
CC(=O)C1=C(O)C(=O)N(c2cccnc2)C1c1ccc([N+](=O)[O-])cc1 (stereo not given)	-0.8	-16.2%
CCOC(=O)N/N=C/c1ccccc1-c1cc(OC)ccc1OC	-1.0	0.8%
CCC[C@@H]1CC2=CC(=O)CC[C@]2(C)[C@H]2CC[C@@]3(C)[C@@H](CC[C@@]34CCC(=O)O4)[C@H]12	3.4	?
CC[N+](CC)(CC)CC[C@](O)(c1ccccc1)C1CCCCC1	-5.0[24.8 µM]	-8.7%
CCn1c(SCC(=O)NCc2ccco2)nnc1-c1ccncc1	-0.9	10.6%
COc1ccc(C2C=C(c3ccc(Br)s3)Nc3ncnn32)cc1OC (stereo not given)	?	56.2µM*
COc1cccc(C2/C(=C(\O)c3c(C)nc4c(C)cccn34)C(=O)C(=O)N2CCCN(C)C)c1 (stereo not given)	2.9	-10.9%
COc1cc(C(CC(=O)N2CCOCC2)c2c(OC)cc(OC)c3c(-c4ccccc4)cc(=O)oc23)cc(OC)c1OC (stereo not given)	0.0	1.2%
COc1cccc(-c2ccc(=O)n(CC(=O)Nc3ccc(S(=O)(=O)NCC(C)C)cc3)n2)c1	0.6	-10.9%
Cc1ccc(NCc2nnc(SCC(N)=O)n2CCc2ccccc2)cc1	3.6	-16.4%
Cc1ccc(-c2cc(C(=O)N/N=C/c3c(C)nn(-c4ccccc4)c3C)[nH]n2)cc1	4.4	6.6%
Cc1ccc(-c2nn(-c3ccccc3)c3[nH]c(=O)c(CNCCN(C)C)cc23)cc1	-0.5	?
COC(=O)[C@@]1(Cc2ccc(OC)cc2)[C@H]2c3cc(C(=O)N4CCCC4)n(Cc4ccc(O)c(OC)c4)c3C[C@H]2CN1C(=O)c1ccccc1	3.9	3.8%
COc1ccc(CN2C(=O)/C(=C/c3ccc(-c4ccc(Cl)c(C(=O)O)c4)o3)SC2=S)cc1	?	50.1µM*
CCOC(=O)N1CCN(C(=O)CCn2c(=S)[nH]c3cc(OCC)c(OCC)cc3c2=O)CC1	2.2	8.0%
NCCC[C@@H](CC(=O)N[C@@H]1CCCC[C@H]1C(=O)N[C@H](CC(=O)N[C@@H](CCC(=O)O)CC(=O)O)Cc1c[nH]c2ccccc12)NC(=O)C[C@H](CO)NC(=O)[C@@H]1CNCC[C@H]1N	-5.4	-1.2%
COc1ccc2c(c1-c1c3c(cc(Br)c1OC)CCCC3)CCCC2	1.5	7.8%
COc1ccc(-c2cc(=O)c3ccc(F)cc3[nH]2)cc1	-5.3[94.6 µM]	8.9%
COc1cc2nc3c4ccccc4n(CC#N)c3nc2cc1OC	-1.1	15.1%
COC(=O)C1=C(C)NC(C)=C(C(=O)NCCCN2CCC(c3ccccc3)(c3ccccc3)CC2)C1c1ccc([N+](=O)[O-])cc1 (stereo not given)	-3.6	-23.1%
COc1ccc2c(c1)O[C@H](c1ccc3c(c1)OCO3)[C@@H](OC(=O)NC1CCCC1)C2=O	-4.0	-14.3%
C#CCCCO/N=C1/[C@H]2O[C@@H]2[C@@H](O)[C@H]2[C@H]1CCn1c(=O)n(Cc3cc4c(cc3Cl)OCO4)c(=O)n12	4.7[11.7 µM]	13.9%

Additional entries:
SMILES	Menin MLL FP FL	Sfp PPTase inh
O=C(Nc1ccccc1-c1ccccc1)C(=O)Nc1ccccc1-c1ccccc1	-2.4	16.3%
CC/C=C\C[C@H]1C(=O)CC[C@@H]1CC(=O)O	-9.8	7.7%
CC(C)N1CC=C2C(C#N)=C(N)C(C#N)(C#N)[C@H](c3ccoc3)[C@H]2C1	?	-4.5%
CC1Cc2ccccc2N1C(=O)CSc1nnc(-c2ccc(S(=O)(=O)N3CCCCC3)cc2)o1 (stereo not given)	3.4	5.3%
Cn1c(=O)[nH]c(=O)c2c1nc(N1CCN(c3cccc(Cl)c3)CC1)n2CCCc1ccccc1	4.3	8.5%
CC(C)N(Cc1ccccc1)C(C)C (tested in a mixture with another compound)	1.0	1.1%
CSc1ccc2c(c1)[C@H](N1CCN(C)CC1)Cc1ccccc1S2	-13.1	-27.6%&10.0%
CCN(CCO)CCCC(C)Nc1ccnc2cc(Cl)ccc12 (stereo not given)	-2.8&0.1	6.0%&2.0%
COc1ccc([C@@H]2CC(=O)c3c(O)cc(O[C@@H]4O[C@H](CO)[C@@H](O)[C@H](O)[C@H]4O[C@@H]4O[C@@H](C)[C@H](O)[C@@H](O)[C@H]4O)cc3O2)cc1	0.4	-14.9%
Cc1ccc(CN2C(=O)/C(=C3\SC(N4CCOCC4)=NC3=O)c3cc(Br)ccc32)cc1	0.0	-0.2%
O=C(CNc1cc(S(=O)(=O)N2CCCC2)ccc1OCC(F)(F)F)Nc1cc(Cl)cc(Cl)c1	-3.7	10.3%
CC1=CC(C)(C)N(C(=O)C(C)N2C(=O)c3ccccc3C2=O)c2c(C)cc(C)cc21 (stereo not given)	0.7	3.4%
Cc1nc(NCc2ccccc2)c2nc(-c3ccccc3)n(CCCN3CCCCC3C)c2n1 (stereo not given)	-1.5	4.9%
Cc1ccc2c(c1)c1nnc(SCC(=O)NC3CC3)nc1n2C	0.3	4.2%
CCN1C(=O)[C@H]2[C@H]3[C@H](O)[C@H](O)C/C(=N/OCC(C)C)[C@H]3CC[C@@H]2C1=O	-0.3[11.7 µM]	-8.9%
COc1ccc(C2=Nn3c(nnc3-c3cccc(OC)c3)SC2)cc1	-0.8	?
COC(=O)[C@@H]1C[C@@]2(O)[C@@H](O)[C@@H](O)[C@@H](O)C[C@H]2N1Cc1ccc(C(C)(C)C)cc1	0.9	10.3%
CCCC[C@@H]1C[C@H]1C(NC(=O)c1cccnc1)c1ccc(Cl)cc1 (stereo not given in full)	-1.6	18.4%
C[C@H](NCc1ccccc1)c1ccccc1	-5.2	14.2%
CC(=O)OC1CC2C(C)(C)C(=O)C3OC3[C@]2(C)C2CC[C@@]3(C)C(c4ccoc4)OC(=O)C4OC43[C@]12C (stereo not given in full)	3.3	13.7%
Cc1ccc2c(c1)CC[C@H]1CC(=O)CC[C@@]21C	-3.1	20.6%
CC(=O)OCC(CCn1cnc2cnc(N)nc21)COC(C)=O	3.4&1.6	13.2%&15.2%
O=C(N/N=C1/C[C@@H](O)[C@@H](O)[C@@H]2[C@@H]3C(=O)N(C4CCCCC4)C(=O)[C@H]3CC[C@@H]12)OCc1ccccc1	-1.2[11.7 µM]	13.2%
COc1cccc([C@@H]2Oc3ccc(Br)cc3C[C@H]2O)c1	4.6	19.3%
Cc1[nH][nH]c(=O)c1N=Nc1ccccc1C#N	6.3	?

Next part:
SMILES	Menin MLL FP FL	Sfp PPTase inh
O=C(Nc1ccc(C(=O)Nc2ccc(C(=O)Nc3ccc(S(=O)(=O)O)c4cc(S(=O)(=O)O)cc(S(=O)(=O)O)c34)cc2)cc1)Nc1ccc(C(=O)Nc2ccc(C(=O)Nc3ccc(S(=O)(=O)O)c4cc(S(=O)(=O)O)cc(S(=O)(=O)O)c34)cc2)cc1	3.6	?
Clc1cc(Cl)cc(C2=N[C@@H](Cc3ccccc3)CO2)c1	-6.7[94.6 µM]	5.9%
O=C(Nc1nc2ccccc2s1)c1ccc2c(c1)S(=O)(=O)c1ccccc1C2=O	5.4	5.2%
Cc1ccc(Cl)cc1Nc1nc(-c2sc(NC(=O)c3ccccc3)nc2C)cs1	8.0	-21.1%
Cc1nc2c3ccccc3n(CCN3CCCCC3)c2s1	-0.7	12.1%
COc1ccc(C(OCC2CO2)c2ccc(OC)cc2)cc1 (stereo not given)	-1.1	-0.8%
NC[C@](O)(CS(=O)(=O)O)c1ccc(Cl)cc1	-7.3	-2.1%
COc1ccc(NC(=O)c2ccc3c(SCC(=O)O)c4c(nc3c2)CCCC4)cc1Cl	3.8	2.6%
O=C(O)c1cc(-c2ccc(/C=c3\sc4nc5ccc(Br)cc5n4c3=O)o2)ccc1Cl	?	56.2µM*
Nc1ccc2oc(=O)ccc2c1I	0.5	5.5%
O=C(Nc1cc(C(F)(F)F)cc(C(F)(F)F)c1)c1cc(Cl)ccc1O	-0.6&-1.6	3.8%&-3.3%
O=C(NC1CCCCC1)C(=S)NC1CCCCC1	-0.4	7.5%
COc1ccc(O[C@H]2C=C[C@@H](c3ccccc3)O[C@@H]2CO/N=C/C[C@@H]2C=C[C@H](OC(C)=O)[C@@H](COC(C)=O)O2)cc1	0.4	-2.7%
CC(=O)Nc1ccc(S(=O)(=O)N2C(=O)c3cccc4cccc2c34)cc1	-0.9	-18.2%
CC(C)=CCn1cnc2c1c(=O)n(C)c(=O)n2C	0.0	-1.1%
COC(=O)[C@@]1(Cc2ccc(OC)cc2)[C@H]2c3cc(C(=O)N(C)C)n(Cc4ccc(C(F)(F)F)nc4)c3C[C@H]2CN1C(=O)c1ccccc1	3.8	17.1%

By substructure: the entries above with a CF3 group.
SMILES	Menin MLL FP FL	Sfp PPTase inh
O=C(CNc1cc(S(=O)(=O)N2CCCC2)ccc1OCC(F)(F)F)Nc1cc(Cl)cc(Cl)c1	-3.7	10.3%
O=C(Nc1cc(C(F)(F)F)cc(C(F)(F)F)c1)c1cc(Cl)ccc1O	-0.6&-1.6	3.8%&-3.3%
COC(=O)[C@@]1(Cc2ccc(OC)cc2)[C@H]2c3cc(C(=O)N(C)C)n(Cc4ccc(C(F)(F)F)nc4)c3C[C@H]2CN1C(=O)c1ccccc1	3.8	17.1%

Not all compounds are listed; count on the stated rates, not on these rows.
